Vaccinia stage – Vaccinia orthopox stage-specific inhibition | activity change (mCherry), % (concentration not given with the values) | AID 1053133 | 89,000 tested, 0.01% active | Vaccinia-infected cells, mCherry/Venus stage reporter fluorescence; hits give low values; some inactives read as strong as hits;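 active = mCherry past -33% and 40 or more points under the early reporter, replicates agreeing; inconclusive = past -33% without that gap or agreement; tested in A549 cells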;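 also: scaled between vehicle wells and reference inhibitor wells; 23 nL library stock went into each well; one replicate is shown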
Vaccinia stage Venus – further read-out of Vaccinia stage, marked with its call; activity change (Venus), %; measured here: Venus reporter, other viral stage;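 negative = less Venus signal; first of two replicates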
* = called active by the depositor; ? = inconclusive; . = not tested or not shown. Some of the compounds tested; rates above refer to the full screens.

SMILES	Vaccinia stage	Vaccinia stage Venus
C[C@@H]1CN([C@@H](C)CO)C(=O)c2cc(NC(=O)Nc3ccccc3)ccc2O[C@@H](C)CCCCO[C@H]1CN(C)C(=O)c1ccccc1	4.3	0.5
C[C@@H]1CN([C@@H](C)CO)C(=O)Cc2cc(NC(=O)CCCN(C)C)ccc2O[C@H]1CN(C)CC1CCCCC1	-21.2	-16.2
C[C@@H]1CN([C@H](C)CO)C(=O)c2cc(NC(=O)CCCN(C)C)ccc2O[C@H]1CN(C)C(=O)Nc1ccc(F)cc1	-3.3	2.8
C[C@@H]1CN([C@@H](C)CO)C(=O)Cc2cc(NC(=O)Nc3ccc(F)cc3)ccc2O[C@H]1CN(C)Cc1ccc(C(F)(F)F)cc1	?	.
O=C(C[C@@H]1C[C@@H]2c3cc(NC(=O)C4CCC4)ccc3O[C@@H]2[C@@H](CO)O1)NCc1ccc(Cl)cc1	-0.6	-0.6
COC(=O)C[C@H]1CC[C@H]2[C@H](COc3ccc(NC(=O)c4cccc(Cl)c4)cc3C(=O)N2C)O1	-5.4	-5.6
C[C@@H]1CN([C@H](C)CO)C(=O)c2cc(NC(=O)CCC(F)(F)F)ccc2O[C@@H]1CN(C)Cc1ccccc1	-6.4	-3.2
CN(C)C(=O)C[C@H]1C=C[C@@H](NC(=O)NC2CCCCC2)[C@H](CO)O1	-5.9	11.4
C[C@H](CO)N1C[C@H](C)[C@@H](CN(C)Cc2ccc(C(=O)Nc3ccccc3N)cc2)Oc2c(NS(=O)(=O)c3ccc(F)cc3)cccc2C1=O	6.6	7.6
C[C@@H]1CCCCO[C@@H](CN(C)Cc2ccc(C(=O)O)cc2)[C@@H](C)CN([C@@H](C)CO)C(=O)c2cc(NC(=O)CCC(F)(F)F)ccc2O1	7.3	11.5
CO[C@@H]1CN(C)C(=O)c2cc(NS(C)(=O)=O)ccc2OC[C@@H](C)N(C(=O)C2CC2)C[C@@H]1C	12.0	5.9
CC(C)NC(=O)N(C)C[C@@H]1Oc2c(NC(=O)c3cnccn3)cccc2C(=O)N([C@H](C)CO)C[C@H]1C	4.1	-5.2
CCCC#Cc1ccc2c(c1)O[C@@H](CN(C)C(=O)NC(C)C)[C@@H](C)CN([C@@H](C)CO)S2(=O)=O	-14.8	-7.9
C[C@@H]1CN([C@@H](C)CO)C(=O)c2cccc(NC(=O)NC3CCCCC3)c2O[C@@H]1CN(C)C(=O)Nc1ccc(F)cc1	-7.2	-2.8
COCC(=O)N(C)C[C@@H]1Oc2ncc(C#CC3(O)CCCC3)cc2C(=O)N([C@@H](C)CO)C[C@H]1C	-7.6	-6.1
C[C@H](CO)N1C[C@H](C)[C@H](CN(C)Cc2ccncc2)OCCCC[C@H](C)Oc2ccc(NS(=O)(=O)c3cccs3)cc2C1=O	11.1	8.0
O=C(C[C@@H]1CC[C@H](NC(=O)Nc2cc(F)ccc2F)[C@@H](CO)O1)NCCCN1CCOCC1	-3.8	-5.2
O=C(C[C@@H]1C=C[C@@H](NC(=O)CN2CCOCC2)[C@H](CO)O1)NC1CCC1	-2.9	-3.7
C[C@@H]1CCCCO[C@H](CN(C)S(=O)(=O)c2ccc(Cl)cc2)[C@@H](C)CN([C@H](C)CO)C(=O)c2cc(NS(=O)(=O)c3ccc(F)cc3)ccc2O1	-10.8	-5.3
CNC[C@H]1Oc2ccc(NC(=O)Nc3cccc4ccccc34)cc2C(=O)N([C@@H](C)CO)C[C@@H]1C	3.9	5.0
C[C@H](CO)N1C[C@H](C)[C@@H](CN(C)Cc2ccc(Cl)c(Cl)c2)Oc2c(NC(=O)C3CCOCC3)cccc2C1=O	-9.9	4.0
C[C@@H]1CN([C@@H](C)CO)S(=O)(=O)c2ccc(C#Cc3ccncc3)cc2O[C@H]1CN(C)C	-5.2	-2.8
CNC[C@H]1Oc2cc(C#Cc3cccnc3)ccc2S(=O)(=O)N([C@@H](C)CO)C[C@@H]1C	13.3	4.0
CN1C(=O)c2cc(NC(=O)NC3CCCC3)ccc2OC[C@@H]2O[C@H](CC(=O)NCC3CC3)CC[C@H]21	4.5	10.5
CNC[C@H]1Oc2ccc(NS(=O)(=O)c3cccs3)cc2CC(=O)N([C@@H](C)CO)C[C@@H]1C	-5.1	12.7
C[C@@H]1CN([C@@H](C)CO)C(=O)c2cc(NC(=O)Nc3ccc(F)cc3)ccc2O[C@@H](C)CCCCO[C@@H]1CN(C)C(=O)c1ccccc1	43.2	25.9
C[C@H](CO)N1C[C@H](C)[C@H](CN(C)C(=O)c2ccc3c(c2)OCO3)Oc2cc(C#Cc3ccccc3F)ccc2S1(=O)=O	?	.
COCC#Cc1cnc2c(c1)C(=O)N([C@H](C)CO)C[C@H](C)[C@@H](CN(C)C(=O)Nc1cc(F)ccc1F)O2	11.8	6.1
CN(C)CC(=O)Nc1ccc2c(c1)[C@@H]1C[C@@H](CC(=O)NCc3cccnc3)O[C@@H](CO)[C@@H]1O2	10.6	4.0
C[C@@H]1CN([C@@H](C)CO)C(=O)c2cc(C#CC3CCCCC3)cnc2O[C@@H]1CN(C)S(=O)(=O)c1ccc(F)cc1	?	-16.2
COc1ccc(NC(=O)N(C)C[C@@H]2Oc3ccc(NC(=O)Nc4ccccc4)cc3CC(=O)N([C@H](C)CO)C[C@@H]2C)cc1	21.0	23.1
CC(=O)N1[C@@H]2c3cccc(=O)n3C[C@H]1[C@H](CO)[C@H]2C(=O)N[C@@H](C)c1ccccc1	5.3	9.8
CO[C@H]1CN(C)C(=O)c2ccc(NC(=O)Cc3ccccc3)cc2OC[C@H](C)N(C)C[C@H]1C	14.4	1.9
CN(C)C(=O)c1ccc(-c2ccc3c(c2)[C@@H]2[C@@H](CCN2C(=O)c2cnccn2)[C@@H](CO)N3)cc1	10.5	-0.6
C[C@@H]1CN([C@H](C)CO)C(=O)c2cc(NC(=O)CCN3CCOCC3)ccc2O[C@H]1CN(C)C	7.2	1.5
CN1C(=O)c2cc(NC(=O)c3cccc(F)c3)ccc2OC[C@@H]2O[C@H](CC(=O)N3CCc4ccccc4C3)CC[C@@H]21	?	.
C[C@@H]1CCCCO[C@H](CN(C)CC2CC2)[C@@H](C)CN([C@H](C)CO)C(=O)c2cc(NC(=O)Nc3ccc(F)cc3)ccc2O1	5.1	3.5
C[C@@H]1CN([C@@H](C)CO)C(=O)c2cc(NC(=O)C3CC3)ccc2O[C@H]1CN(C)Cc1ccc(Cl)c(Cl)c1	?	.
Cc1ccc(S(=O)(=O)Nc2ccc3c(c2)CC(=O)N([C@H](C)CO)C[C@H](C)[C@@H](CN(C)Cc2ccccc2)O3)cc1	?	.
Cc1ccc(S(=O)(=O)N(C)C[C@H]2Oc3ccc(N(C)C)cc3C(=O)N([C@@H](C)CO)C[C@@H]2C)cc1	-3.2	-6.5
C[C@@H]1CN([C@H](C)CO)C(=O)c2c(c3ccccc3n2C)-c2ccccc2CO[C@@H]1CN(C)S(=O)(=O)c1cn(C)cn1	3.3	-3.8
CC(=O)N(C)C[C@@H]1Oc2cc(C#Cc3ccccc3F)ccc2S(=O)(=O)N([C@H](C)CO)C[C@H]1C	?	.
C[C@H](NC(=O)C[C@@H]1C[C@H]2c3cc(NC(=O)CN(C)C)ccc3O[C@H]2[C@H](CO)O1)c1ccccc1	10.7	6.1
CCC(=O)N1CCCCN2[C@@H](CO)[C@@H](c3ccc(C#Cc4ccccc4)cc3)[C@@H]2C1	?	.
Cc1ccc(S(=O)(=O)Nc2ccc3c(c2)CC(=O)N([C@@H](C)CO)C[C@@H](C)[C@H](CN(C)CC2CCCCC2)O3)cc1	?	.
CCS(=O)(=O)Nc1ccc2c(c1)C(=O)N(C)[C@H]1CC[C@@H](CC(=O)N3CCCCC3)O[C@@H]1CO2	6.7	5.0
C[C@@H]1CN([C@H](C)CO)C(=O)c2cc(NC(=O)C3CCCCC3)ccc2O[C@@H](C)CCCCO[C@H]1CN(C)C(=O)c1ccncc1	2.6	-2.1
OC[C@@H]1Nc2ccc(-c3cccc(F)c3)cc2[C@H]2[C@@H]1CCN2Cc1ccc(F)cc1	-9.8	20.8
C[C@H](O)C#Cc1cnc2c(c1)C(=O)N([C@@H](C)CO)C[C@@H](C)[C@H](CN(C)C(=O)c1ccc(F)cc1)O2	2.8	-1.1
CC(C)NC(=O)N(C)C[C@@H]1OCCCC[C@H](C)Oc2ccc(NC(=O)Nc3ccc(F)cc3)cc2C(=O)N([C@@H](C)CO)C[C@@H]1C	-11.1	1.4
C[C@@H]1CCCCO[C@@H](CN(C)Cc2ccc(C(=O)Nc3ccccc3N)cc2)[C@@H](C)CN([C@H](C)CO)C(=O)c2cc(NC(=O)Nc3cccc4ccccc34)ccc2O1	14.9	18.2
O=C(C[C@H]1CC[C@H]2[C@@H](COC[C@H](O)CN2S(=O)(=O)c2cccc(Cl)c2)O1)Nc1ccc(-c2ccccc2)cc1	?	.
N#C[C@H]1[C@@H](c2ccc(/C=C/c3ccccc3)cc2)[C@@H](CO)N1C(=O)C1CCOCC1	4.8	7.6
C[C@H]1CCCCO[C@@H](CN(C)Cc2ccncc2)[C@@H](C)CN([C@@H](C)CO)C(=O)c2cc(NC(=O)C3CCCCC3)ccc2O1	-17.6	-8.6
Cc1noc(C)c1NC(=O)N(C)C[C@@H]1OCCCC[C@@H](C)Oc2ccc(NC(=O)Nc3ccc(F)cc3)cc2C(=O)N([C@H](C)CO)C[C@H]1C	-1.0	-8.6
Cc1ccc(S(=O)(=O)N[C@H]2C=C[C@@H](CC(=O)N3CCc4ccccc4C3)O[C@@H]2CO)cc1	-10.4	-0.6
C[C@H](CO)N1C[C@H](C)[C@@H](CN(C)S(=O)(=O)c2ccc(Cl)cc2)Oc2ccc(NS(C)(=O)=O)cc2CC1=O	11.0	13.2
CN1C(=O)c2cc(NC(=O)C3CCOCC3)ccc2OC[C@@H]2O[C@H](CC(=O)NC3CCCC3)CC[C@@H]21	1.3	0.0
O=S(=O)(c1ccccc1)N1[C@@H]2CNc3ccccc3[C@@H]2[C@@H]1CO	9.1	17.5
COc1cccc(C(=O)Nc2ccc3c(c2)OC[C@H](C)N(C(C)=O)C[C@H](C)[C@@H](OC)CN(C)C3=O)c1	11.0	5.7

Copied from the results shown for reference:
SMILES	Vaccinia stage	Vaccinia stage Venus
Cc1noc(C)c1NC(=O)N(C)C[C@@H]1OCCCC[C@@H](C)Oc2ccc(NC(=O)Nc3ccc(F)cc3)cc2C(=O)N([C@H](C)CO)C[C@H]1C	-1.0	-8.6
Cc1ccc(S(=O)(=O)N[C@H]2C=C[C@@H](CC(=O)N3CCc4ccccc4C3)O[C@@H]2CO)cc1	-10.4	-0.6
C[C@H](CO)N1C[C@H](C)[C@@H](CN(C)S(=O)(=O)c2ccc(Cl)cc2)Oc2ccc(NS(C)(=O)=O)cc2CC1=O	11.0	13.2
CN1C(=O)c2cc(NC(=O)C3CCOCC3)ccc2OC[C@@H]2O[C@H](CC(=O)NC3CCCC3)CC[C@@H]21	1.3	0.0
O=S(=O)(c1ccccc1)N1[C@@H]2CNc3ccccc3[C@@H]2[C@@H]1CO	9.1	17.5
COc1cccc(C(=O)Nc2ccc3c(c2)OC[C@H](C)N(C(C)=O)C[C@H](C)[C@@H](OC)CN(C)C3=O)c1	11.0	5.7

(more compounds)
SMILES	Vaccinia stage	Vaccinia stage Venus
CO[C@@H]1CN(C)C(=O)c2cc(NC(=O)c3ccc(-c4ccccc4)cc3)ccc2OC[C@H](C)NC[C@H]1C	?	.
Cc1noc(C)c1S(=O)(=O)Nc1ccc2c(c1)C(=O)N([C@@H](C)CO)C[C@@H](C)[C@@H](CN(C)CC1CC1)O2	-4.7	-1.9
C[C@@H]1CN([C@@H](C)CO)S(=O)(=O)c2ccc(Br)cc2O[C@@H]1CN(C)Cc1cncnc1	24.1	1.8
COc1ccc(NC(=O)Nc2ccc3c(c2)C(=O)N([C@@H](C)CO)C[C@H](C)[C@H](CN(C)C(=O)Nc2ccc4c(c2)OCO4)OCCCC[C@@H](C)O3)cc1	11.0	12.0
O=C(Nc1ccccc1)N1CC(=O)N2[C@H](CO)[C@H](c3ccc(C#CC4CCCCC4)cc3)[C@H]2C1	-23.5	-17.0
CCN1[C@@H]2Cn3c(ccc(-c4ccccc4OC)c3=O)[C@H]1[C@@H](C(=O)N[C@@H](C)c1ccccc1)[C@@H]2CO	4.5	-4.4
Cc1noc(C)c1S(=O)(=O)N(C)C[C@H]1Oc2ccc(NS(=O)(=O)c3ccc(Cl)cc3)cc2C(=O)N([C@H](C)CO)C[C@H]1C	2.7	3.9
O=C(C[C@@H]1CC[C@@H]2[C@H](COC[C@@H](O)CN2C(=O)Nc2ccccc2)O1)NCc1ccncn1	3.3	18.5
CO[C@H]1CN(C)C(=O)c2ccc(NC(=O)C3CC3)cc2OC[C@H](C)N(Cc2nccs2)C[C@H]1C	2.4	5.4
C[C@H]1CN([C@@H](C)CO)C(=O)c2c(c3ccccc3n2C)-c2ccccc2CO[C@@H]1CN(C)C(=O)CCC(F)(F)F	?	.
C[C@H]1CN([C@@H](C)CO)C(=O)Cc2cc(NS(C)(=O)=O)ccc2O[C@@H]1CN(C)Cc1ccc2c(c1)OCO2	14.7	2.1
COc1ccc(NC(=O)Nc2ccc3c(c2)CC(=O)N([C@H](C)CO)C[C@H](C)[C@@H](CN(C)S(=O)(=O)c2cccs2)O3)cc1	-4.8	-5.5
CC=Cc1ccc2n(c1=O)C[C@@H]1[C@@H](CO)[C@H](C(=O)OC)[C@H]2N1C(=O)CC1CC1 (mixture of isomers)	2.1	6.6
O=C(C[C@H]1C=C[C@@H](NC(=O)c2ccncc2)[C@H](CO)O1)Nc1ccccc1	4.5	4.9
CNC(=O)C[C@H]1CC[C@@H]2[C@H](COC[C@@H](O)CN2Cc2ccc(C(F)(F)F)cc2)O1	20.3	16.7
O=C(Nc1ccccc1F)N[C@H]1CC[C@H](CCNS(=O)(=O)c2ccccc2)O[C@H]1CO	-2.7	-2.0
CCC(=O)N1CCC2(CC1)CN(Cc1cc(F)ccc1F)[C@H](CO)c1c2c2ccc(OC)cc2n1C	8.9	0.7
